TRPML1 ag = human mucolipin-1 channel agonism. Q9GZU1. TRPML1-expressing cells, Ca2+ dye fluorescence, FDSS; host cell line not named in the record; reference of the full effect not given here. activation, % (no concentration beside the values). actives 0.12% (n = 410,000). AID 624414; in the data active = activation above about 50%; inconclusive = about 30% to 50%; inactive = below about 30%; note: 0% is about no effect; the text of the record puts the active cut at 80%
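Calcium fluorescence on an FDSS kinetic reader gave the read-out. Tet-induced TRPML1-DL cells were plated overnight, dye-loaded (Ca8 with quencher, 45-90 min, room temperature, dark), then read 110 s after compound addition, and again 110 s after 4uM final 54-4 (EC80).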
PINK1 modulator = changes PINK1 expression. PINK1 immunofluorescence, high-content cytometry, 24 h. Potency, µM (series often up to 76.6 µM), for the others: at the top dose activation (PINK1 increase), actives largely listed as activators. actives 0.2% (n = 410,000). AID 624263; active = well fitted activation curve with a large enough effect; inconclusive = small, poorly fitted or top-dose-only effect; inactive = flat fitted curve, though single readings scatter; cell line not stated here;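 note: potency is the fitted concentration of half-maximal effect; % of control where 0% means no effect; nearly all actives have a fitted effect of over 65% in size; a mitochondrial uncoupler was the plate control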
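Cells are seeded, rested 12 hours, then given compound at five concentrations or DMSO for 24 hours. After fixation, blocking and antibody staining, PINK1 amount and mitochondrial localization are scored; CCCP serves as control.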
CtBP-E1A blk = blocks the CtBP interaction with E1A; AlphaScreen GST-E1A/His-CtBP binding, 1536-well; active compounds read low; control for the full effect not named in the record; AID 651724; activity change, % (test concentration not listed); actives 0.49% (n = 340,000); in the data active means activity change below about -65%; inconclusive means about -30% to -65%; inactive means above about -30%; note: % is set by controls: 0 for no effect and ±100 for the full control effect
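In 5 uL wells, 23 nL compound meets equimolar GST-E1A and His-CtBP (5X stock 125 nM each) for 2 h, 37 °C. Beads (5X, 50 ug/mL) then 1 h, 37 °C, dark.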
TRPML1 inh = inhibitors of human TRPML1 channel; actives 0.02% (n = 390,000); TRPML1-inducible cells, Ca2+ dye fluorescence, FDSS; active compounds read low; inhibition of EC80 agonist-evoked calcium signal; Q9GZU1; activity change, negative = inhibition, % (no concentration beside the values); AID 624415; in the data active means activity change below about -50%; inconclusive means about -30% to -50%; inactive means above about -30%;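 note: stimulus is agonist 54-4 at its EC80 concentration; % is set by controls: 0 for no effect and ±100 for the full control effect; compound concentration not given in the record; the text of the record puts the active cut at -80%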
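Tet-induced TRPML1-DL cells loaded with Ca8 no-wash calcium dye were read kinetically on FDSS. Compound addition was followed by EC80 agonist 54-4 (4 uM final); inhibition was read over 110 s.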
Six1-Eya2 inh = inhibitors of human Six1/Eya2 interaction; Q15475+O00167; AlphaScreen GST-Six1/His-Eya2 binding, biochemical; active compounds read low; control for the full effect not named in the record; activity change, % (concentration not given with the values); actives 0.56% (n = 360,000); in the data active = activity change below about -65%; inconclusive = about -30% to -65%; inactive = above about -30%; note: % is set by controls: 0 for no effect and ±100 for the full control effect
Target sequence (O00167 whole entry, looked up): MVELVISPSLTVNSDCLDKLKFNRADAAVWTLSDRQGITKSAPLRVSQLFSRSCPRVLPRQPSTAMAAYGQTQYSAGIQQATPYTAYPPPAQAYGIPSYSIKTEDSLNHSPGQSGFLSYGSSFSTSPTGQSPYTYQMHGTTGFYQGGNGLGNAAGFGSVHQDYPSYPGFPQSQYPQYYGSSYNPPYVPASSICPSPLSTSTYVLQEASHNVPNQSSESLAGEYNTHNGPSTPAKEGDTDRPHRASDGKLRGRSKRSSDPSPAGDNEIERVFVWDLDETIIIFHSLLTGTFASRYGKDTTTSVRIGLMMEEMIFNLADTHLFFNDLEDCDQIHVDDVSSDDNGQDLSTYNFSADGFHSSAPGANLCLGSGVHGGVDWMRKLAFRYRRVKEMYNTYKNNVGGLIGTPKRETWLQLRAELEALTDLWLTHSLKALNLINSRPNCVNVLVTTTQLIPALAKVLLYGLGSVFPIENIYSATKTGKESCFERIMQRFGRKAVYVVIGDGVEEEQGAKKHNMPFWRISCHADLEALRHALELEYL
Target sequence (Q15475 whole entry, looked up): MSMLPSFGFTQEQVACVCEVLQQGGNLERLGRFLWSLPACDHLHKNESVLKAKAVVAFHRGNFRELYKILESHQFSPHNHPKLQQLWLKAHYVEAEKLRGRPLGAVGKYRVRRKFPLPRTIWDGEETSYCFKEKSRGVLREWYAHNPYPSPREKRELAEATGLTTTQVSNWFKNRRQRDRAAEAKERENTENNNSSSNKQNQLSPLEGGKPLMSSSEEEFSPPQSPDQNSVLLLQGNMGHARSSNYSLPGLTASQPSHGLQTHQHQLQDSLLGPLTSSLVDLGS
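Homogeneous AlphaScreen proximity assay pairing GST-Six1 with His-tagged Eya2 (added as 5X mix: 250 nM and 500 nM) in 50 mM Tris pH 8.0, 300 mM NaCl, 1 mM TCEP. Glutathione donor and nickel acceptor beads; 1 h, 37 °C, dark.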
D2 agonist = human D2 receptor agonism in beta-arrestin assay | P14416 | DiscoveRx PathHunter D2 beta-arrestin, luminescence, 90 min; 100% = 57 uM dopamine signal | activation, % (concentration not given with the values) | actives 0.084% (n = 360,000) | AID 624465; in the data active = activation above about 40%; inconclusive = about 15% to 40%; inactive = below about 15%; note: compound concentration not given in the record; the text of the record calls up to 30% inactive
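DiscoveRx PathHunter D2 beta-arrestin cells (2,100/well) attached overnight, then compound-stimulated 90 min at 37 C in HBSS/10 mM HEPES/0.1% Tween-20 buffer; beta-galactosidase complementation read by luminescence after 1 h at ambient temperature. Dopamine 57 uM final (EC100) as control.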
* hit, by the source's call; ? = inconclusive; nt = no result given; & = joins results of further samples; [ ] = another dose, or the depositor's remark. Outcome played no part in choosing rows; overall some 1% were active at least once.

SMILES | TRPML1 ag | PINK1 modulator | CtBP-E1A blk | TRPML1 inh | Six1-Eya2 inh | D2 agonist
O=C(O)c1ccc(S(=O)(=O)NCC2CCCO2)cc1 (stereo not given) | -0.5 | 1.7% | nt | 5 | 3 | 4.7
CCOC(=O)c1nc(N2CCN(C(=O)OCC)CC2)c2c3c(sc2n1)CCCC3 | -0.1 | -2.6%[38.3 µM] | 12 | -5 | -2 | 5.4
CCc1nc2ccc(C(=O)NCCCn3ccnc3)cn2c1N(C)Cc1ccc(Cl)cc1 | -0.4 | 0.8% | 8 | nt | 3 | -5.9
O=C(CSc1ccc(-c2ccccn2)nn1)c1ccc(F)cc1 | 0.3 | 2.4% | -14 | 7 | -12 | 1.2
O=C(NCCCN=C1NS(=O)(=O)c2ccccc21)c1ccccc1Cl | 0.4 | -2.7% | 7 | 13 | 5 | -1.2
COC(=O)C1=C(N)c2ccccc2C1(C#N)c1ccccc1 (stereo not given) | 1.6 | 1.2% | 2 | 18 | -4 | -2.1
Cc1ccccc1CCN(C(=O)Cn1nnc2ccccc21)C(C(=O)NCC1CCCO1)c1nc2ccccc2n1C (stereo not given) | 1.3 | 6.4% | 4 | -27 | 6 | 0.5
CC1(C)CC(=O)C(C(=S)Nc2ccccc2)=C(NC2CC(C)(C)NC(C)(C)C2)C1 | -0.1 | -0.2% | -6 | -20 | 0 | -1.5
CC(=O)NCc1cc(-c2ccc(Cl)cc2)no1 | 0.1 | 0.6% | 1 | 12 | 1 | -3.0
COc1ccc(N(CC(=O)N/N=C/c2ccc(-c3ccc([N+](=O)[O-])cc3)o2)S(=O)(=O)c2ccc(C)cc2)cc1 | 0.1 | -0.7% | -5 | 42 | -5 | -8.3
Cc1[nH]n(-c2ccccc2)c(=O)c1-c1ccc(Cl)cc1 | 8.0 | -1.5% | -3 | -3 | -8 | -4.3
Cn1c(=O)c2cc(NC(=O)CCc3cccnc3)ccc2n1Cc1ccc(F)cc1 | -0.2 | 0.8% | -4 | nt | -11 | 1.2
CC1CCC(N2CCN(c3ncccn3)CC2)CC1 (stereo not given) | -0.6 | -4.7%[38.3 µM] | 2 | 13 | 4 | 4.6
CCOC(=O)/C=C1\CN(Cc2ccc(OC)cc2)S(=O)(=O)c2ccccc21 | -0.1 | 0.9% | 0 | -7 | -6 | 4.2
CC(C)NC(=O)Nc1ccc2c(c1)C(=O)N([C@H](C)CO)C[C@H](C)[C@@H](CN(C)C(=O)Nc1ccc(C(F)(F)F)cc1)O2 | -0.7 | -0.4% | 3 | -3 | 3 | 0.3
COc1cc(/C=N/Nc2nc(-c3ccc(S(=O)(=O)N(C)C)cc3)cs2)ccc1O | -0.9 | -0.2% | -2 | -20 | -6 | 14
CCOc1ccccc1N(CC(=O)N1CCc2ccccc2C1)S(=O)(=O)c1ccccc1 | 1.2 | 0.3% | nt | -16 | nt | nt
CCOc1cc2[nH]c(=O)n(Cc3ccc(C(=O)N4CCN(c5ccccc5)CC4)cc3)c(=O)c2cc1OCC | 0.4 | 1.6% | nt | -9 | nt | nt
CCCCc1ccc(NC(=O)NCc2cccnc2)cc1 | 1.1 | -0.5% | 8 | 10 | 0 | -2.2
CCOC(=O)CN1c2ccccc2NC(=O)CC1C (stereo not given) | 0.2 | 1.2% | 0 | -11 | 3 | 0.7
COc1ccc(NC(=O)Cn2ncc(Cl)c(Cl)c2=O)cc1S(=O)(=O)N1CCOCC1 | 0.1 | -1.8% | -2 | -17 | -13 | -3.2
N=C1/C(=C/c2ccc(OCc3ccccc3)cc2)C(=O)N=C2SC(CC(=O)N3CCOCC3)=NN12 | 0.6 | -0.1% | -7 | 9 | 0 | 0.1
CCCc1ccc(C(O)c2ncc(-c3ccccc3F)[nH]2)cc1 (stereo not given) | -0.9 | 5.6% | -7 | nt | -9 | -5.5
O=C(CCc1ccncc1)N1CCCC(Nc2ccc(F)cc2)C1 (stereo not given) | 0.8 | -0.7% | 4 | -9 | 1 | -5.0
Cc1nc(SCC(=O)NCc2ccco2)nc(C)c1C | 1.2 | -2.7% | 12 | 2 | -5 | -0.8

Random excerpt: 2 records from the list
SMILES | TRPML1 ag | PINK1 modulator | CtBP-E1A blk | TRPML1 inh | Six1-Eya2 inh | D2 agonist
CCCCc1ccc(NC(=O)NCc2cccnc2)cc1 | 1.1 | -0.5% | 8 | 10 | 0 | -2.2
Cc1ccccc1CCN(C(=O)Cn1nnc2ccccc21)C(C(=O)NCC1CCCO1)c1nc2ccccc2n1C (stereo not given) | 1.3 | 6.4% | 4 | -27 | 6 | 0.5

Part of the list above in order of SMILES length, smallest number first.
SMILES | TRPML1 ag | PINK1 modulator | CtBP-E1A blk | TRPML1 inh | Six1-Eya2 inh | D2 agonist
Cc1nc(SCC(=O)NCc2ccco2)nc(C)c1C | 1.2 | -2.7% | 12 | 2 | -5 | -0.8
O=C(CCc1ccncc1)N1CCCC(Nc2ccc(F)cc2)C1 (stereo not given) | 0.8 | -0.7% | 4 | -9 | 1 | -5.0
CCc1nc2ccc(C(=O)NCCCn3ccnc3)cn2c1N(C)Cc1ccc(Cl)cc1 | -0.4 | 0.8% | 8 | nt | 3 | -5.9

Further structures.
SMILES | TRPML1 ag | PINK1 modulator | CtBP-E1A blk | TRPML1 inh | Six1-Eya2 inh | D2 agonist
O=C(c1ccc(CNc2c(N3CCCC3)c(=O)c2=O)cc1)N1CCc2ccccc2C1 | -0.8 | 0.4% | -26 | 36 | ? | -5.0
CCOC(=O)C1CCN(C(=S)Nc2cccc(C)c2)CC1 | 0.1 | nt | 8 | -2 | 4 | -1.4
CC1CCN(C(=O)CCC(=O)Nc2nnc(C3CCCCC3)s2)CC1 | -0.7 | -0.8% | -6 | 16 | 0 | -2.4
O=c1cc(-c2ccccc2F)nc(-c2ccccc2F)o1 | 0.1 | 0.5% | 10 | 16 | 5 | -2.9
Oc1ccc(C=NCCc2ccccc2)cc1 | 2.5 | -1.9% | 8 | -4 | 6 | 12
COc1ccc(C(=O)N2CC(=O)Nc3ccc(C)cc3C2c2ccccc2)cc1OC (stereo not given) | 3.1 | 0.3% | nt | 24 | nt | nt
CCCC1=NN2C(=N)/C(=C\c3cc(C)n(-c4cccc(C)c4)c3C)C(=O)N=C2S1 | 1.2 | -2.0% | -13 | -13 | -22 | -2.7
CC(C)[C@H](NC(=O)c1ccccc1)C(=O)OCC(=O)N1CCCCCC1 | -0.1 | -1.5% | 29 | -1 | -5 | -0.6
COc1ccc(OC)c(C2=Nn3c(nnc3-c3cc(C)[nH]n3)SC2)c1 | 1.4 | 4.1% | -16 | -6 | -5 | 2.5
O=C(/C=C/c1ccc(Cl)cc1Cl)Nc1ccc(CN2CCOCC2)cc1 | 4.2 | 6.9% | 6 | 19 | -2 | -0.6
CSCCC(NC(=O)c1ccco1)C(=O)Nc1ccncc1 (stereo not given) | -0.1 | 0.1% | 7 | 5 | 6 | -0.9
Cc1nnc(SCC(=O)NCCc2ccccc2)s1 | 0.7 | -0.2% | nt | -5 | 3 | -1.9
COc1cc(NC(=O)COc2ccccc2[N+](=O)[O-])ccc1NC(=O)c1cccs1 | 0.1 | 0.6% | 0 | 12 | 1 | -1.8
COc1ccc(-c2nc(C)c(CCNS(=O)(=O)c3cc(C)c(C)cc3C)s2)cc1 | 1.8 | 2.2% | nt | 24 | nt | nt
CCC1CN(S(=O)(=O)c2cc(-c3cc(C)no3)ccc2OC)c2cc(C)ccc2O1 (stereo not given) | 0.6&0.5 | 0.2%&1.5% | 0 | 0&14 | -10 | -0.9
CCCCN(CCCC)CC(O)Cn1cc(/C=C/C(=O)c2ccccc2)c2ccccc21 (stereo not given) | 0.6 | ? | nt | 6 | nt | nt
CN=c1sc2ccccc2n1CC(O)COCc1ccco1 (stereo not given) | -0.5 | 1.4% | 1 | 13 | -1 | -4.3
COC(=O)Cn1c(=NC(=O)c2cc(OC)c(OC)c(OC)c2)sc2cc(OC)ccc21 | -0.5 | 18% | 2 | 37 | 17 | -0.9
O=C(COC(=O)CN1C(=O)COc2ccccc21)NCc1ccc(F)cc1 | -0.2 | 6.2% | 11 | -2 | -11 | -4.3
O=C(COC(=O)c1ccc([N+](=O)[O-])cc1Cl)NC(=O)c1ccccc1 | 0.3 | -1.7% | 1 | 0 | 8 | 8.5
CCOC(CNC(=O)c1cc2c(=O)n(CC)c3ccccc3c2s1)OCC | 0.7 | 1.7% | 8 | 20 | 0 | 0.3
C=CCn1c(CCNC(=O)c2ccccc2F)nnc1SCC(=O)Nc1nc(C)cs1 | -0.2 | -0.8% | -5 | -11 | -1 | 0.0
CCOC(=O)C1Oc2ccccc2C(c2ccc(OC)cc2)=C1C(=O)OC (stereo not given) | 1.0 | -0.1% | 11 | 3 | 9 | -1.5
Cc1ccc(NC(=O)c2ncn(CCCN[C@H](C)c3cccc4ccccc34)n2)cc1C | 0.5 | -1.2% | -13 | 16 | -10 | -2.4
O=C(CSc1nnc(-c2ccccc2Cl)o1)Nc1ccccn1 | 0.3 | 0.4% | nt | 49 | -4 | -2.0

Later entries.
SMILES | TRPML1 ag | PINK1 modulator | CtBP-E1A blk | TRPML1 inh | Six1-Eya2 inh | D2 agonist
CN1CCN(CCCNCc2cn(CCC#N)c3ccccc23)CC1 | -0.4 | -1.0% | -7 | 9 | 15 | -2.1
CC(=O)Nc1ccc(NC(=O)c2ccc(-c3ccccc3Cl)o2)cc1 | 0.4 | 1.2% | -3 | -7 | -10 | -3.9
O=C(N/N=C/c1ccc(Br)s1)c1ccccn1 | -0.6 | -0.6% | -26 | -7 | ? | -1.1
O=C1CCSc2ccc(Cl)cc2N1Cc1cccc(Cl)c1 | 0.8 | 3.3% | 11 | 45 | 15 | -4.0
CN(C)S(=O)(=O)c1ccc(N2CCCC2)c(C(=O)NCC2CCCCC2)c1 | 1.7 | -0.7% | nt | 12 | 1 | -4.9
CC(C)(C)c1ccc(S(=O)(=O)NCc2ccc(C(=O)N3CCOCC3)cc2)cc1 | 0.3 | 3.8%[38.3 µM] | 5 | ? | -2 | -1.8
COc1cccc(-c2ccc3nnc(SCC(=O)N4CCOCC4)n3n2)c1 | 0.8 | 1.9% | 2 | -7 | -2 | -1.9
CCC(C)N(C(=O)COC(=O)c1ccc(=O)n(Cc2ccccc2)n1)C1CCS(=O)(=O)C1 (stereo not given) | 1.3 | 0.6% | -4 | -11 | -2 | -5.3
Cc1nn(Cc2ccc(F)cc2)c(C)c1NC(=O)c1cc2ncc(Br)cn2n1 | 10 | 0.0% | nt | -25 | -9 | -1.9
O=C(CC1SC(=O)N(Cc2cccc3ccccc23)C1=O)Nc1nccs1 (stereo not given) | 1.1 | 4.0% | 4 | 32 | -3 | -2.0

Ordered by value in D2 agonist (smallest number first): 5 from the list above
SMILES | D2 agonist
CN(C)S(=O)(=O)c1ccc(N2CCCC2)c(C(=O)NCC2CCCCC2)c1 | -4.9
O=C1CCSc2ccc(Cl)cc2N1Cc1cccc(Cl)c1 | -4.0
CN1CCN(CCCNCc2cn(CCC#N)c3ccccc23)CC1 | -2.1
CC(C)(C)c1ccc(S(=O)(=O)NCc2ccc(C(=O)N3CCOCC3)cc2)cc1 | -1.8
O=C(N/N=C/c1ccc(Br)s1)c1ccccn1 | -1.1

Screening results as filed in PubChem BioAssay.
